PrP 5UTR inh = inhibition of PrP 5' UTR reporter expression; cell-based PrP 5' UTR mRNA reporter, plate reader; inhibition, % (concentration not given with the values); 0.35% of 340,000 active;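 active = every replicate at 50% or more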;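 also: 0 = median of the neutral control wells; tested in H4 reporter cells; numbers are from one replicate; inactives centre near -14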
Autofluor counter = counter-screen for toxin protease inhibitors: compound fluorescence; compound autofluorescence counterscreen, microsphere flow cytometry; active compounds read high; fluorescence intensity (concentration not given with the values); 3.1% of 360,000 active;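 active = at least 3 SD above the mean of all compounds, about 16000 in these data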;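 also: 100 nL of 1 mM stock went into each well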
ugtP null kill = growth inhibition of S. aureus ugtP deletion strain; S. aureus RN4220 ugtP deletion, OD600 growth, 16 h; some inactives read as strong as hits; growth inhibition, % (no concentration beside the values); 0.54% of 330,000 active;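 active = z-score under -3 and OD600 up to 0.15 on both plates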;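 also: plate controls were untreated wells for no effect and antibiotic for full effect; wells of about 80 µL received 100 nL stock; the first replicate is given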
Mtb hypoxia rep = inhibitors of hypoxia-regulated fluorescent reporter in Mycobacterium tuberculosis. M. tuberculosis hypoxia-regulated fluorescent reporter, fluorescence. fluorescence inhibition, % (no concentration beside the values). 0.1% of 300,000 active. AID 1159583;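 active = 35 to 45% if threefold the growth effect, above 45% if 1.5-fold the growth effect; inactive = the rest, general growth blockers included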;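 also: wells of about 50 µL received 100 nL stock; 0% = vehicle wells and 100% = reference inhibitor wells; whole bacteria with a GFP reporter of the hypoxia response; strong numbers were not always called active; many hits fall short of the cut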
BJeLR lethal = BJeLR cell viability loss; BJeLR (HRASV12) viability, CellTiter-Glo ATP luminescence, 48 h; reference of the scale not given here; inhibition, % (concentration not given with the values); 0.17% of 300,000 active;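 active = replicate mean above 50%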;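 also: 50 nL library stock added to about 25 µL; numbers are from one replicate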
Sa RN4220 lethal = S. aureus RN4220 growth inhibition. OD600, 16 h. inhibition, % (no concentration beside the values). 0.33% of 330,000 active. AID 1259311;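 active = z-score of -3 or lower and OD600 up to 0.18 on both plates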;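 also: plate controls were untreated cells for no effect and reference antibiotic for full effect; stock transfer was 100 nL into about 80 µL; one replicate is shown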
Mtb hypoxia rep growth = second read-out of Mtb hypoxia rep, no call of its own (marks repeat the call); growth inhibition, %; measured here: M. tuberculosis growth (absorbance);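 0% = vehicle and 100% = reference antibiotic; read after six days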
An asterisk follows results filed as active; x = not tested or not shown.

SMILES	PrP 5UTR inh	Autofluor counter	ugtP null kill	Mtb hypoxia rep	Mtb hypoxia rep growth	BJeLR lethal	Sa RN4220 lethal
COc1ccccc1CC1S/C(=N/N=Cc2ccco2)NC1=O (configuration not stated)	x	x	2.3	0.6	-2.5	x	3.2
O=C(NCc1csc2ccc(Cl)cc12)Nc1ccccc1	-35.4	x	-8.7	5.0	11.1	7.1	3.4
O=C(CCN1CCN(c2ccccc2)CC1)NNC(=O)c1cccc2ccccc12	-1.8	2619	5.2	8.0	3.2	14.1	3.0
COc1ccc(S(=O)(=O)NCC(=O)N(CC(=O)NC(C)(C)C)Cc2cccs2)cc1	36.8	3594	1.8	17.5	11.6	x	3.8
CC(C(=O)NN)c1ccc([N+](=O)[O-])cc1 (configuration not stated)	3.9	3335	5.4	6.4	6.2	-7.4	9.6
S=c1[nH]nc(COc2ccccc2)n1/N=C/c1ccc(Cl)c(Cl)c1	-34.8	4034	x	x	x	-10.3	x
NNC(=O)CSc1c(-c2ccccc2)c2cc(Cl)ccc2[nH]c1=O	0.1	3422	-16.0	2.5	1.3	-0.7	1.8
O=S(=O)(NC1=NCCC1)c1ccc(F)cc1	-13.3	3399	2.2	x	x	-0.5	-2.0
COc1ccc(S(=O)(=O)N(C)CC(=O)Nc2cccc(C(C)=O)c2)cc1C	-7.0	7742	11.1	4.2	5.0	18.6	3.9
O=c1cc(-c2ccccc2)nc2c(-c3ccccc3)c(C(F)(F)F)[nH]n12	x	x	31.7	9.6	-5.0	2.2	56.8
COc1ccc(C(=O)NCC(c2ccccc2)c2ccccc2)cc1S(=O)(=O)N1CCOCC1	-12.9	3932	20.0	-8.6	6.7	x	-2.2
C=C(C)COc1ccc(-c2nc(N)nc(C(F)(F)F)c2-c2ccc(OC)cc2)c(O)c1	-4.8	3680	8.0	14.6	6.1	5.3	-6.8
O=C(NCc1ccc2c(c1)OCO2)c1cc(-c2cc(Cl)ccc2O)n[nH]1	-27.7	3682	6.5	-18.3	-10.0	-1.6	1.6
Cc1ccccc1N1C(=O)C(Cl)=C(N2CCN(c3ccccc3)CC2)C1=O	0.5	4440	2.8	5.1	-1.5	3.1	4.5
COc1cc(/C=N/NC(=O)CCc2c(C)n[nH]c2C)cc(OC)c1OC	2.3	8734	x	x	x	-2.6	x

Entries of single compounds from above.
Cc1ccccc1N1C(=O)C(Cl)=C(N2CCN(c3ccccc3)CC2)C1=O is listed as PrP 5UTR inh = 0.5; Autofluor counter = 4440; ugtP null kill = 2.8; Mtb hypoxia rep = 5.1; Mtb hypoxia rep growth = -1.5; BJeLR lethal = 3.1; Sa RN4220 lethal = 4.5
COc1cc(/C=N/NC(=O)CCc2c(C)n[nH]c2C)cc(OC)c1OC is listed as PrP 5UTR inh = 2.3; Autofluor counter = 8734; ugtP null kill = x; Mtb hypoxia rep = x; Mtb hypoxia rep growth = x; BJeLR lethal = -2.6; Sa RN4220 lethal = x

4 compounds out of the list, sorted by length of the SMILES, rising.
SMILES	PrP 5UTR inh	Autofluor counter	ugtP null kill	Mtb hypoxia rep	Mtb hypoxia rep growth	BJeLR lethal	Sa RN4220 lethal
S=c1[nH]nc(COc2ccccc2)n1/N=C/c1ccc(Cl)c(Cl)c1	-34.8	4034	x	x	x	-10.3	x
O=C(CCN1CCN(c2ccccc2)CC1)NNC(=O)c1cccc2ccccc12	-1.8	2619	5.2	8.0	3.2	14.1	3.0
Cc1ccccc1N1C(=O)C(Cl)=C(N2CCN(c3ccccc3)CC2)C1=O	0.5	4440	2.8	5.1	-1.5	3.1	4.5
COc1ccc(C(=O)NCC(c2ccccc2)c2ccccc2)cc1S(=O)(=O)N1CCOCC1	-12.9	3932	20.0	-8.6	6.7	x	-2.2

New compounds follow:
SMILES	PrP 5UTR inh	Autofluor counter	ugtP null kill	Mtb hypoxia rep	Mtb hypoxia rep growth	BJeLR lethal	Sa RN4220 lethal
Cc1oc(C(=O)O)cc1COc1cccc2ccccc12	-17.8	3887	5.8	-2.7	-6.9	0.3	11.2
Nc1nc(-c2ccccc2)c(N=Nc2ccccc2Cl)s1	-27.6	1595	30.9	15.2	-7.2	1.4	1.2
CCc1ccc(OC)c(S(=O)(=O)NCCOc2ccccc2)c1	-26.0	10711	6.4	16.3	5.6	-0.7	12.8
COc1ccc(C(=O)C2CCCN(C(=O)c3cccs3)C2)cc1F (configuration not stated)	13.6	3439	10.8	9.6	-0.6	2.0	4.1
CC1=C(C(=O)OC(C)C)C(c2cccs2)NC(=O)N1 (configuration not stated)	-6.8	4015	x	x	x	-5.8	x
CCCCN1CC(Br)C(=O)NC1=O (configuration not stated)	-10.2	3638	3.7	x	x	x	2.2
COc1cc(C(=O)Nc2nnc(CC(C)C)s2)c([N+](=O)[O-])cc1OC	-18.0	1944	-1.1	4.6	-2.7	-2.9	2.0
CNC(=O)c1[nH]cnc1C(=O)Nc1ccccn1	-15.3	4303	1.7	4.5	5.0	x	3.9
Cc1ccccc1NC(=O)CCC(=O)N/N=C/c1cccnc1	-15.1	5640	x	x	x	7.8	x
Cc1[nH]c2ccccc2c1NC(=O)CN1CCN(Cc2ccc3c(c2)OCO3)CC1	x	x	0.6	-1.5	0.5	10.0	-9.3
CCC(C)NS(=O)(=O)c1cc2c3c(c1)CCN3C(=O)CC2 (configuration not stated)	0.2	5607	1.7	1.3	8.4	1.7	-1.0
Cc1cc(C)c(NC(=O)CS(=O)CC(=O)Nc2ccc(F)cc2F)c(C)c1 (configuration not stated)	-17.9	4611	-9.6	-8.4	-2.2	3.8	3.2
O=C(CC1CCCCC1)OCn1nnc2ccccc2c1=O	-1.2	3505	16.4	12.0	-0.9	-3.2	4.0
CCOC(=O)c1c(NC(=O)CSc2nnc(-c3cccc(C)c3)n2CC)sc(C(C)=O)c1C	-17.9	2678	-1.3	x	x	-12.8	-7.0
O=C(CCC1CCCC1)Nc1cc(C(F)(F)F)ccc1N1CCOCC1	-12.3	4241	3.9	4.1	-5.9	-4.3	-0.8
COc1ccc(-c2csc(N(CCCN(C)C)C(=O)c3cc(OC)c(OC)c(OC)c3)n2)cc1	-25.3	x	6.8	4.2	7.0	-1.5	-3.5
CCOC(=O)c1sc(N)nc1-c1ccccc1	-5.4	5382	11.6	-1.5	-6.1	1.0	3.6
CCCN1CCC(=O)N(CCO)CC1	-18.1	4386	1.3	2.3	-2.9	3.8	3.9
COc1ccc(-n2c(C)n[nH]c2=O)cc1OC	-8.9	9453	-6.1	3.2	8.6	7.6	-1.0
COc1ccc2nc(N=CN(C)C)sc2c1	x	x	0.0	15.1	2.2	x	0.4
COc1ccc(OC)c(CNS(=O)(=O)c2cc(CN3C(=O)c4cccnc4C3=O)ccc2OC)c1	-19.7	5002	9.4	13.2	7.6	0.1	3.4
N#Cc1nc(-c2ccc(Cl)cc2)oc1NCCc1ccccn1	-68.6	x	7.1	9.0	1.7	-2.4	-4.7
COC(=O)C1=C(c2ccc(C(C)=O)cc2)CC2CCC1N2C(=O)NC1CCCCC1 (configuration not stated)	x	x	1.2	6.0	12.1	x	-0.3
COc1ccc(Cl)cc1-n1c(=S)sc2c(=O)[nH]c(SCC(=O)NCC3CCCO3)nc21 (configuration not stated)	-40.8	9655	-0.8	-8.6	-9.3	x	-1.6
CCOc1ccc(CCNC(=O)c2sc3nc4n(c(=O)c3c2C)CCC4)cc1	-5.4	5690	8.2	1.1	7.6	8.3	0.7
Cc1cc(NC(=O)CC(C)C)c(=O)n(Cc2ccccc2F)c1	-14.1	3595	3.8	-12.3	-6.9	-0.1	5.1
Cn1cccc1C(=O)N1CCN(S(=O)(=O)c2ccccc2)CC1	-20.2	4819	-0.4	0.5	0.0	5.8	2.1
Cc1cc(-c2ccc(Cl)cc2)n2nc(C)cc2n1	-10.5	3137	5.9	-1.7	6.5	-5.4	2.0
Cc1cc(C)c2[nH]c(=O)c(C(c3nnnn3Cc3ccc4c(c3)OCO4)N3CCC(C)CC3)cc2c1 (configuration not stated)	-20.5	7291	-6.8	x	x	1.3	1.6
CCOC(=O)C(=CNc1ccc(N2CCOCC2)cc1)C(=O)OCC	-24.0	4207	0.6	-3.0	5.0	2.4	3.1
CC(C(=O)N(C)C)N(C#N)c1nc(N(C)C)nc(N(C)C)n1 (configuration not stated)	-15.4	2761	-0.7	x	x	0.7	-1.9
O=c1c(-c2nnc(SCc3ccc(Cl)cc3)o2)cccn1Cc1ccccc1	0.9	22587*	4.3	0.3	5.3	3.5	4.0
O=c1[nH]cnc2c1sc1nc(-c3ccccc3)c3c(c12)CCCC3	-15.7	2248	27.8	-7.6	2.9	3.5	-3.1
O=C(CNS(=O)(=O)c1ccc2ccccc2c1)OCc1csc(-c2ccccc2)n1	13.4	2556	14.9	12.4	4.4	-1.6	5.4
O=C(NNC(=O)c1ncc(Cl)c(Cl)c1Cl)c1ccc(F)cc1	-26.0	6115	-2.6	12.2	4.9	16.2	7.7
Cn1nnnc1SCC(=O)NC1CCCc2ccccc21 (configuration not stated)	-22.6	4417	-4.5	7.0	-2.5	17.4	-0.9
CC(C)OC(=O)c1cc(Cl)c(=O)n(Cc2ccc(Cl)cc2Cl)c1	-30.3	3812	1.3	-5.9	9.4	-20.9	1.3
CCOc1ccccc1C(=O)Nc1cc(C)ccc1NC(=O)c1ccco1	0.3	4346	-5.0	2.9	-1.1	-8.2	4.7
Cc1c(C(=O)Oc2ccc(-c3cnc4ccccc4n3)cc2)cccc1[N+](=O)[O-]	-76.6	4446	-5.1	0.1	8.4	0.6	11.8
CC(=O)c1c(C)nc(-c2ccc(Cl)cc2)nc1NC(=O)C(C)C	-12.1	4149	-0.2	8.5	1.9	-7.2	1.8
COc1ccc(/C=C/C(=O)Nc2cccc(S(=O)(=O)N3CCCC3)c2)cc1OC	-12.2	3329	4.0	-2.3	2.0	-4.3	-1.5
COC(=O)[C@]12C(=O)NCC(CN1c1ccc(C(F)(F)F)cc1)N2C	x	x	0.3	-5.3	8.2	x	-0.6
CC1=NNC(=O)C1CCC(=O)N/N=C/C(Br)=C/c1ccccc1 (configuration not stated)	-16.1	2089	x	x	x	-9.8	x
O=C(Nc1nccs1)c1ccc(Cl)c(S(=O)(=O)N2CCCCC2)c1	-9.5	2199	17.2	x	x	-3.0	2.0
Cc1cc(C(=O)CCC(=O)NCC(=O)Nc2c(C)cccc2C)c(C)s1	0.4	7029	-2.6	-3.2	6.2	x	3.2
COc1ccc(-c2nc3cc(NC(=O)c4ccc5c(c4)OCO5)ccc3o2)cc1	5.4	3214	-13.8	5.9	-1.5	3.0	-0.3
O=C(Nc1ccccc1N1CCCCC1)c1cccc(OC(F)F)c1	-0.3	4451	8.6	14.5	-1.3	-4.6	-0.9
Cc1ccccc1C(=O)Nc1ccc2nc3n(c(=O)c2c1)CCC3	-28.5	5708	5.1	1.1	3.7	1.8	5.5
O=C(NC1CCCCC1)C(c1ccccc1)N1CCC2(CC1)OCCO2 (configuration not stated)	-27.3	4821	12.7	x	x	0.9	-0.5
N#CC1=C(N)C(C#N)(C#N)C(c2cccnc2)C2COCC=C12 (configuration not stated)	-23.2	3665	-0.4	0.1	3.1	-11.6	1.1
N#CC1=C(N)SC(N)=C(C#N)C1c1cccc(Oc2ccccc2)c1	-4.7	11182	-11.2	0.2	-6.7	1.5	0.1
CC(=C(C#N)C(=O)NCc1ccccc1)N(C)C	x	x	-1.9	6.3	6.3	x	5.0
Cc1cc(C)c(NC(=O)CN(C)CC(=O)Nc2cccc(S(=O)(=O)N(C)c3ccccc3)c2)c(C)c1	-6.6	3542	-2.7	-6.2	3.3	x	-4.7
CCc1ccc2[nH]c(C)c(CN3CCCCCC3)c(=O)c2c1	-0.7	3474	14.6	11.6	-1.3	2.6	4.9
